RmlCD inh mix: inhibitors of RmlC and RmlD coupled enzymes; AID 1532; inhibition, % at 5.5 µM; 0.39% of 110,000 active; RmlC/RmlD coupled enzyme inhibition, 384-well mixture HTS; in the data active means inhibition above about 30%, passing the limit was not always enough; only retested compounds are shown here; further: strong numbers were not always called active
RmlCD inh mix retest: further read-out of RmlCD inh mix, marked with its call; inhibition, %; measured here: mean retest inhibition;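 single compounds in two wells; values far above 100% likely come from compound fluorescence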
The depositor's hits bear a star; i = inactive; x = no result given. A portion of the library; count on the stated rates, not on these rows.

#	compound	RmlCD inh mix	RmlCD inh mix retest
1	CCCC[N+]1(C)[C@@H]2CC(OC(=O)[C@H](CO)c3ccccc3)C[C@H]1[C@@H]1O[C@@H]12 (stereo not given in full)	33	-8
2	CC(=O)NC(NC(C)=O)c1ccc(N(C)C)cc1	32	-7
3	Cc1cc2c3c(c1)C1(SCC(=O)N1c1ccc(F)cc1)C(=O)N3C(C)(C)CC2C (stereo not given)	104	-3
4	COCCn1c(SCc2csc(-c3ccccc3)n2)nc2ccccc21	123	3
5	CCOC(=O)N1CCC(Nc2c(NCCCOC)c(=O)c2=O)CC1	62	-7
6	O=C(Cc1cccc2ccccc12)Nc1ccc(-c2cc3ccccc3oc2=O)cc1	131	-382
7	Cc1cnc(C(=O)Nc2ccccc2-c2ccc(C)o2)cn1	35	-10
8	COc1ccc(-c2cc(-c3ccccc3)c(C#N)c(S(C)=O)n2)cc1 (stereo not given)	74	27

Carrying on.
#	compound	RmlCD inh mix	RmlCD inh mix retest
9	NCCCCCc1nnc(SCc2ccccc2Cl)o1	44	1
10	CC(=O)NC(CC(C)C)C(=O)NC(Cc1ccccc1)C(N)=O (stereo not given)	47	6
11	Cc1ccc(CNC(=O)C2CCC(CNc3c(N4CCOCC4)c(=O)c3=O)CC2)cc1 (stereo not given)	46	2
12	CC(=O)N1CCN(S(=O)(=O)c2cccc(C(=O)NC3CCCc4ccccc43)c2)CC1 (stereo not given)	49	-12
13	Nc1cccc(-c2cn3cc(C(F)(F)F)cc(Cl)c3n2)c1	106	-13
14	Cn1cnnc1-c1cccc(NS(=O)(=O)c2ccc(N3CCCC3=O)cc2)c1	97	5
15	CCOC(=O)C1C(=O)C(C(=O)OCC)C(c2cccnc2)NC1c1cccnc1 (stereo not given)	32	1
16	O=C(NNS(=O)(=O)c1ccccc1)C1CCN(S(=O)(=O)c2ccc(Cl)cc2)CC1	97	-11

Following part
#	compound	RmlCD inh mix	RmlCD inh mix retest
17	c1ccc(N2CCN(c3nc4ccccc4n4nnnc34)CC2)cc1	46	-11
18	COc1ccc(-c2oc(/N=C/N3CCCC3)c(C#N)c2-c2ccc(OC)cc2)cc1	41	-10
19	O=C1NC(=Nc2cccc(Cl)c2)SC1Cc1cccc(Cl)c1Cl (stereo not given)	54	-10
20	CC1(C)Cc2nc(NCCCO)c(C#N)cc2CO1	44*	62*
21	COc1ccc(-c2oc3c4c(cc(OC)c3c(=O)c2CC=C(C)C)OC(C)(C)C=C4)c(OC)c1	119	10
22	COCCNc1cc(C)c(C#N)c2nc3ccccc3n12	36*	70*
23	O=C(c1cccn2c(=O)c3cc(Cl)ccc3nc12)N1CCC2(CC1)OCCO2	65	-7
24	Cc1cc(C)n(-c2nncn2NC(=O)c2ccc(Cl)cc2O)n1	31	4

Along the list, as entered above:
RmlCD inh mix, entries 18 to 22, in order: 41, 54, 44*, 119, 36*
RmlCD inh mix retest, entries 18 to 22, in order: -10, -10, 62*, 10, 70*

(cont.)
#	compound	RmlCD inh mix	RmlCD inh mix retest
25	COc1ccc2oc(-c3ccccc3)c(C(N)=O)c2c1	i	-5
26	CC(C)C(c1nnnn1CCc1ccccc1)N1CCN(C(=O)c2ccco2)CC1 (stereo not given)	52	-6
27	CN(C)Cc1c(O)ccc2c3c(c(=O)oc12)CCCCC3	117*	146*
28	Cc1ccc2c(c1)nc(NCCO)n2C	i	-16
29	CC(C)CC(=O)Nc1cccc2c1C(=O)N(c1ccccc1)C2=O	140	-7
30	Cc1cccc(C)c1N1CCN(S(=O)(=O)N2CCOCC2)CC1	104	1
31	CCn1c2ccccc2c2nnc(SCC(=O)Nc3cc(C)on3)nc21	38	8
32	Cc1c(NC(=O)c2ccccc2NS(=O)(=O)c2ccc(Br)cc2)c(=O)n(-c2ccccc2)n1C	99	-6

Next records.
#	compound	RmlCD inh mix	RmlCD inh mix retest
33	CCn1c(SCC(=O)Nc2cccc(NC(=O)c3ccco3)c2)nnc1-c1cccs1	68	4
34	O=C(Nc1ccccc1C(=O)N1CCOCC1)c1ccco1	57	4
35	CC(=O)NCCOc1cccc(OCCNC(C)=O)c1	59	1
36	CCOc1ccccc1C(=O)N(Cc1ccco1)C1CCS(=O)(=O)C1 (stereo not given)	44	-9
37	CCCn1c(=N)c(C(=O)NC2CCCC2)cc2c(=O)n3cccc(C)c3nc21	43*	80*
38	Cc1cc(C(=O)Nc2sc3c(c2C#N)CCCCC3)cs1	165	-16
39	CCC1=C2CC[C@H]3C(=O)N(CC(=O)OC)C(=O)[C@H]3[C@H]2[C@@]2(C)C(=NCC(=O)OC)OC(=O)N2C1=O	85	1
40	c1ccc(-n2ncc3c(N4CCN(CCOc5cccc6ccccc56)CC4)ncnc32)cc1	105	6

Following part
#	compound	RmlCD inh mix	RmlCD inh mix retest
41	Cc1ccc(CNC(=O)CSc2nc3ccsc3c(=O)n2NC(=O)c2ccccc2)cc1	100	-4
42	CCC1c2ccc(C)n2CCN1C(=O)Nc1ccccc1OC (stereo not given)	40	-7
43	COc1ccc(OC)c(/C=N/NC(=O)CC2C(=O)NN=C2C)c1 (stereo not given)	54*	81*
44	CCn1c(SCC(=O)Nc2ccc3c(c2)OCO3)nc2ccccc21	30	-14
45	CN(C(=O)c1ccccn1)c1nnc(-c2ccccn2)s1	74*	110*
46	COc1cccc(-c2nnc3sc(-c4ccco4)nn23)c1	44	2
47	CCC(=O)NC(c1cccc([N+](=O)[O-])c1)c1c(OC(C)=O)ccc2ccccc12 (stereo not given)	50	-6
48	CN(C)C(=O)COc1ccc2cc(-c3ccccc3)c(=O)oc2c1	55*	82*

Next section:
#	compound	RmlCD inh mix	RmlCD inh mix retest
49	O=C(O)c1ccc(Cl)c(S(=O)(=O)N2CCCCCC2)c1	41	6
50	CN(C)S(=O)(=O)c1ccc(-c2cn3ccccc3n2)cc1	40*	40*
51	CCN(CC)CCCNc1nc(-c2ccccc2)nc2ccccc12	110	1
52	Cc1c(NC(=O)c2coc(=O)c(Br)c2)c(=O)n(-c2ccccc2)n1C	76*	104*
53	O=C(NCc1ccccn1)c1coc(=O)c(Br)c1	34*	73*
54	COc1cc2c(cc1NS(=O)(=O)N1CCCCC1)oc1ccccc12	39	-19
55	CCOCC(=O)Nc1cc(-c2cn3cccnc3n2)ccc1C	107*	133*
56	Cc1ccc2cc(CN(Cc3cccs3)Cc3nnnn3CC3CCCO3)c(=O)[nH]c2c1 (stereo not given)	i	-6

The listing continues.
#	compound	RmlCD inh mix	RmlCD inh mix retest
57	CCOC(=O)c1ccc(NC(=O)CCOc2ccc(C)cc2)cc1	72	-2
58	O=C(CSc1nnc(Cc2ccccc2)n1-c1ccc(Cl)cc1)N1CCOCC1	110	0
59	O=C(NCCc1nc2ccccc2[nH]1)c1ccco1	36	-1
60	COc1ccccc1N1CCN(S(=O)(=O)c2ccccc2)CC1	31	-9
61	CN(C)CCOc1ccccc1-c1ccccc1	37	-9
62	O=C(NC1CCS(=O)(=O)C1)Oc1ccccc1 (stereo not given)	71	-5
63	CC(C)(C)Nc1nc(NCc2cccnc2)nc(N2CCOCC2)n1	79	-4
64	CCCc1cc(=O)[nH]c(SCC(=O)N(CC)Cc2ccccc2)n1	71	-1

Going on with the list:
#	compound	RmlCD inh mix	RmlCD inh mix retest
65	COc1ccc(O)c(C(=O)CC(=O)c2ccc(F)cc2)c1	58	13
66	COc1cc(NC(=S)NN2CCOCC2)cc(OC)c1	40	6
67	CC1(C)CC(=O)C(C=NCc2cccnc2)=C(O)C1	161	-13
68	Cc1ccccc1CNC(=O)Nc1cccs1	51	-13
69	Nc1nonc1-c1noc(COc2ccccc2Cl)n1	45	-4
70	COC(=O)Cc1c(C)c2ccc(OCC(=O)N(C)C)cc2oc1=O	31*	45*
71	COc1ccc(OC)c(C2C3=C(CCCC3=O)Nc3c2c(=O)n(C)c(=O)n3C)c1 (stereo not given)	122	-10
72	CN(c1ccccc1C(=O)N1CCN(c2cccc(Cl)c2)CC1)S(C)(=O)=O	31	11

Next section.
#	compound	RmlCD inh mix	RmlCD inh mix retest
73	CCOC(=O)Cc1csc(NC(=O)CSc2nnc(C3CC3)n2C)n1	39	-3
74	Cc1c(O)cc2c(c1O)C(=O)CC(c1ccccc1)O2 (stereo not given)	52	-2
75	CCOC(=O)c1cnc(SCc2cccc(C)c2)nc1N	56	-11
76	CCN1CCN(c2nc3sc4c(c3c3ncnn23)CC(C)CC4)CC1 (stereo not given)	46	-7
77	Cc1ccc(NC(=O)Cn2nnc(C(=O)NCc3ccccc3)c2N)cc1C	41	-3
78	O=C(Oc1ccc2c3c(c(=O)oc2c1)CCC3)c1ccco1	187*	x
79	Cc1ccc(/C(N)=N/OC(=O)c2ccco2)cc1	40	-1
80	CC(=O)C1=C(O)C(=O)N(CC#N)C1c1cccs1 (stereo not given)	42	9

Following part.
#	compound	RmlCD inh mix	RmlCD inh mix retest
81	Cc1sc2nc3ccc(NCc4ccco4)nn3c(=O)c2c1C	76	-9
82	Cc1nc(NC(=O)/C=C/c2ccccc2)sc1C(=O)Nc1ccccc1Cl	37*	48*
83	CCN(CC)CCN1C(=O)C(=O)/C(=C(/O)c2c(C)[nH]c(C(=O)OC)c2C)C1c1cccc(OC)c1 (stereo not given)	57	-1
84	CCOc1ccc(CN2CCN(c3cc(C)nc4c5c(C)cc(C)nc5nn34)CC2)cc1	93	-31
85	COCC(C)OC(=O)c1c(N)n(Cc2ccco2)c2nc3ccccc3nc12 (stereo not given)	56*	109*
86	O=C(Cn1ncc2c3ccccc3n(Cc3ccc(F)cc3)c2c1=O)N1CCN(c2ncccn2)CC1	56	-8
87	COC(=O)c1cc(OC)c(OC)cc1NC(=O)c1cccnc1	53	1
88	COc1cc2c(cc1OC)CN(Cc1cc(=O)n3cc(C)ccc3n1)CC2	52	28

(continued)
#	compound	RmlCD inh mix	RmlCD inh mix retest
89	Cc1ccc(S(=O)(=O)N(C)CC(=O)N2CCN(c3ccccn3)CC2)cc1	32	-3
90	CC(=O)c1cccc(-n2nnnc2SCC(=O)N2CCCC2)c1	32	-10
91	Cc1csc(SCC(=O)Nc2cc(C(C)(C)C)nn2-c2ccccc2)n1	36	3
92	CCCCn1c(NC(C)CC)nc2c1c(=O)[nH]c(=O)n2C (stereo not given)	43	-6
93	COc1ccc2c(c1)c(=O)oc1cc(OCC(=O)N3CCC(C)CC3)ccc12	62	43
94	CC(C)C(=O)Nc1ncc2c(n1)CC(c1cccs1)CC2=O (stereo not given)	45	-6
95	O=C(c1cccn2c(=O)c3cc(Br)ccc3nc12)N1CCC2(CC1)OCCO2	32	37
96	Cc1ccc(Nc2nc(-c3c(C)nc4ncccn34)cs2)cc1	106	1

Next section
#	compound	RmlCD inh mix	RmlCD inh mix retest
97	CC(C)NS(=O)(=O)c1ccc(CCC(=O)NCc2ccco2)cc1	158	11
98	c1ccc(-c2nc(NCc3cccnc3)c3oc4ccccc4c3n2)cc1	33	5
99	CC(C)c1ccc(-c2nn[nH]n2)cc1	32	6
100	CCCCC1=CC2=CC(=O)C(C)(OC(=O)CC)C(=O)C2=CN1CC(C)C (stereo not given)	31	0
101	CC(C)OC(=O)CSc1nc(-c2ccc(F)cc2)cc(C(F)(F)F)n1	69	-8
102	O=C(NCc1ccco1)c1cc(-c2ccccc2)nn1CC1CC(c2cccnc2)=NO1 (stereo not given)	60	3
103	CCNC(=O)c1cc2c(=O)n3cccc(C)c3nc2n(CCc2ccccc2)c1=N	59*	153*
104	CCOC(=O)c1c(NC(=O)COC(=O)Cn2c(C(F)(F)F)nc3ccccc32)sc(C)c1C	38	14

3 entries from above, with values under each structure.
The line under a structure holds: RmlCD inh mix | RmlCD inh mix retest
97: CC(C)NS(=O)(=O)c1ccc(CCC(=O)NCc2ccco2)cc1
  158 | 11
103: CCNC(=O)c1cc2c(=O)n3cccc(C)c3nc2n(CCc2ccccc2)c1=N
  59* | 153*
102: O=C(NCc1ccco1)c1cc(-c2ccccc2)nn1CC1CC(c2cccnc2)=NO1 (stereo not given)
  60 | 3

The results go on:
#	compound	RmlCD inh mix	RmlCD inh mix retest
105	Cc1ccc(-c2nn(CC(=O)Nc3ccc4c(c3)nc3n4CCOC3)c(=O)c3ccccc23)cc1	33	-9
106	O=C(NCc1ccc2c(c1)OCO2)C1CCCN1C(=O)Nc1cccc(Cl)c1 (stereo not given)	31	1
107	S=c1[nH]nc(-c2cc3c(s2)-c2ccccc2CC3)o1	40	-392
108	COc1c2ccoc2nc2c(OC)c(OCC(O)C(C)(C)O)ccc12 (stereo not given)	40	20
109	Cn1cnnc1SCC(=O)c1c[nH]c2ccccc12	32	-7
110	Cc1nnsc1C(=O)NNS(=O)(=O)c1ccccc1	30	9
111	CCOc1ccc2nc(SCc3ccccc3C#N)sc2c1	i	2
112	CSCCC(NC(=O)C1CCC(C)CC1)C(=O)O (stereo not given)	41	-7

Other compounds:
#	compound	RmlCD inh mix	RmlCD inh mix retest
113	COc1ccc(-c2nc(-c3ccc(C(=O)O)cc3)no2)cc1	60	8
114	CCn1c(SCC(=O)Nc2sc3c(c2C#N)CCCC3)nnc1-c1ccco1	66	-4
115	CCOC(=O)c1ccccc1NC(=O)CN(c1cccc(OC)c1)S(C)(=O)=O	110	-6
116	CCOc1cc(-c2nc3c(C)cccn3c2NCC2CCCO2)ccc1O (stereo not given)	44*	34*
117	Cc1ccc(Nc2ccc(C(=O)O)cc2N)cc1	115	12
118	CCCOC(=O)CSC1=C(C#N)C(c2ccc3c(c2)OCO3)CC(=O)N1 (stereo not given)	56	-2
119	COCCNC(=O)c1ccccc1NC(=O)CN(c1ccc2c(c1)OCO2)S(C)(=O)=O	36	7
120	COC(=O)CCS(=O)(=O)c1ccc(Cl)cc1	66	-5
121	CC(C)CCn1c(SCCc2ccccc2)nc2c1c(=O)[nH]c(=O)n2C	34	1
122	O=C1CSC(c2cn(-c3ccccc3)nc2-c2cc3ccccc3oc2=O)N1Cc1ccccc1 (stereo not given)	59	4

2 of the compounds above, with values under each structure:
Each structure is followed by: RmlCD inh mix, RmlCD inh mix retest
116) CCOc1cc(-c2nc3c(C)cccn3c2NCC2CCCO2)ccc1O (stereo not given)
→ 44*, 34*
117) Cc1ccc(Nc2ccc(C(=O)O)cc2N)cc1
→ 115, 12

Single entries from the entries so far:
compound 115 in RmlCD inh mix reads 110
compound 121 in RmlCD inh mix retest reads 1
compound 113 in RmlCD inh mix reads 60
compound 117 in RmlCD inh mix reads 115
compound 118 in RmlCD inh mix reads 56
compound 122 in RmlCD inh mix retest reads 4
compound 116 in RmlCD inh mix retest reads 34*

Assay outcomes from PubChem.
